Source: PubChem BioAssay (several laboratories)
Arbovirus anti: blocks arbovirus infection | arbovirus infection cell-based antiviral screen | hit rate 0.37% among 200,000 | inhibition, % at 10 µM;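 active = inhibition from about 30%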;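 note: bluetongue infection of BSR cells; cell survival read as ATP light after 72 h; 0% = infected wells without compound and 100% = uninfected wells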
Mtb betalactam: beta-lactam sensitization of Mtb H37Rv; inhibition, % at 25 µM; M. tuberculosis H37Rv growth with meropenem, percent inhibition; hits of this screen are not shown here; hit rate 0.27% among 330,000; AID 434955;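 active = about 74% or more and at least 40 points above the plate without the antibiotic, then above 30% in a dose series; inconclusive = first-round hits that could not be retested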;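 note: growth measured after seven days incubation then overnight dye step; 0% = bacteria only wells and 100% = bacteria with antibiotic; twin plates without the antibiotic show which effects depend on it; some results filed as inactive read as strong as hits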
YopH inh: blocks Yersinia enterocolitica YopH tyrosine phosphatase; fluorescence Ex485/Em525; inhibition, %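 (about 10 µM by stock and volumes)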; hit rate 0.16% among 140,000;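 active = inhibition of 50% or more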;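 note: controls were vehicle for no effect and minimum signal wells for full effect; inactives centre near -20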
RecA intein inh: Mtb RecA intein splicing inhibition; P9WHJ3; cell-free RecA intein splicing, fluorescence; inhibition, %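 (about 9 µM by stock and volumes)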; hit rate 0.75% among 290,000; AID 2221; in the data active = inhibition above about 30%; inconclusive = no clear call, values can overlap the other calls;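 note: 0% = vehicle wells and 100% = reference inhibitor control wells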
Target sequence (P9WHJ3 whole entry, looked up): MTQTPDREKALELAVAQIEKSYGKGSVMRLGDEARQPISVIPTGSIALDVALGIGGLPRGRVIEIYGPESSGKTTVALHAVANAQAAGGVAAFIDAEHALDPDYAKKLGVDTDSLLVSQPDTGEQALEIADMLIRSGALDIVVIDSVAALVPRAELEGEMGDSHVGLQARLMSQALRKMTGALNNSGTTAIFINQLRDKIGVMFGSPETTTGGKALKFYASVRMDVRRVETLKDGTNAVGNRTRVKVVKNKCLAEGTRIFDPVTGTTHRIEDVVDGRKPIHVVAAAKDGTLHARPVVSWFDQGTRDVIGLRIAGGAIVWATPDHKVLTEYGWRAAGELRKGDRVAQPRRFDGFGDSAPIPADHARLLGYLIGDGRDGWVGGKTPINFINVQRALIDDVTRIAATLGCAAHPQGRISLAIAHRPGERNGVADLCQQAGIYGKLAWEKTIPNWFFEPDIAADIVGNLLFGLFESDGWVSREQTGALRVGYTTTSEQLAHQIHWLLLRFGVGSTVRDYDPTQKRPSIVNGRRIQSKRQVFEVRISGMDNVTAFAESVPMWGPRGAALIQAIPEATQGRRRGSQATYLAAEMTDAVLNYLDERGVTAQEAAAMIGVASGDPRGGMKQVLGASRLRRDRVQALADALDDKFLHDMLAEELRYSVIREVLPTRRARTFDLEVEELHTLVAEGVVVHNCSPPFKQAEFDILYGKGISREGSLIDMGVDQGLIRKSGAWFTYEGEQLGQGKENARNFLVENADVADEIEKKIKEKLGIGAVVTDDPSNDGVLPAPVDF
Mtb growth: M. tuberculosis H37Rv growth inhibitors, H37Rv strain (AID 1626) | hit rate 0.95% among 220,000 | one-dose inhibition, % at 10 µM; IC50 in µM for titrated hits | M. tuberculosis H37Rv growth inhibition; higher % means a stronger effect;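 active = confirmed in a dose series; inconclusive = inhibition above 80% but not taken into the dose series; inactive = below 80% or under 30% at every dose of the series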;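 note: bacteria incubated seven days before Alamar blue readout; 0% = bacteria only wells and 100% = bacteria with antibiotic wells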
* = called active by the depositor. A portion of the library; count on the stated rates, not on these rows.

`CC(C)Oc1ccccc1OCCN(C)C` gave Arbovirus anti 5, Mtb betalactam -6, YopH inh -7, RecA intein inh 2.8 and Mtb growth -2%.
Screening CCCCNC(=S)N(C)/N=C/c1ccc(OCc2ccc(C(=O)OC)cc2)c(OC)c1 returned Arbovirus anti -14, Mtb betalactam 90, YopH inh -32, RecA intein inh -2.2 and Mtb growth inconclusive.
For O=C(Nc1ccc([N+](=O)[O-])cc1)c1cc(-c2ccccn2)nc2c(Cl)cccc12 the results were Arbovirus anti -8, Mtb betalactam 5, RecA intein inh -0.5 and Mtb growth -1%.
`CN(C)/C=C(/C(=O)c1ccc(F)cc1)S(=O)(=O)c1ccc(F)cc1` gave Arbovirus anti -1, Mtb betalactam -1, RecA intein inh 2.1 and Mtb growth -5%.
For CCN(CC(=O)Nc1ccc(NC(C)=O)cc1)C(=O)c1cc(S(=O)(=O)N2CCCCCC2)ccc1OC the results were Mtb betalactam 0 and RecA intein inh 1.7.
`O=C(/C=C\Nc1ccccn1)c1ccccc1` gave Arbovirus anti 1, Mtb betalactam 3, YopH inh -22, RecA intein inh -4.8 and Mtb growth -4%.
For CCn1c(COc2ccc(C)cc2)nnc1SCC(=O)Nc1cc(OC)ccc1OC the results were Arbovirus anti -2, Mtb betalactam -16, YopH inh -16, RecA intein inh -0.2 and Mtb growth -9%.
For Cc1cc(S(=O)(=O)N2CCCC2)ccc1OCC(=O)NCc1ccccn1 the results were Mtb betalactam 3 and RecA intein inh 1.1.
Screening Cn1c(SCC(=O)NCc2ccco2)nc2ccccc2c1=O returned Arbovirus anti 14, Mtb betalactam -5, YopH inh 0, RecA intein inh -1.0 and Mtb growth -11%.
`O=C1C(Cc2ccccc2)Nc2ncnc(N3CCc4ccccc4C3)c2N1Cc1ccc(Br)cc1` (stereo not given) gave Mtb betalactam -1 and RecA intein inh 28.
CN(C)S(=O)(=O)c1ccc(N2CCCC2)c(C(=O)NCCc2ccc(F)cc2)c1 was read as Mtb betalactam -5 and RecA intein inh -3.6.
For COc1cc(C(=O)NC2CC3CCCC(C2)N3CC(=O)Nc2ccccc2)cc(OC)c1OC (stereo not given) the results were Arbovirus anti 3, Mtb betalactam -2, YopH inh -29, RecA intein inh -0.8 and Mtb growth -14%.
Cc1cc(NC(=O)COC(=O)CCCOc2ccc(Cl)cc2C)no1 was read as Arbovirus anti 7, Mtb betalactam -10, YopH inh -54, RecA intein inh -3.2 and Mtb growth -1%.
Screening O=C(O)c1ccc(CSCc2ccccc2F)o1 returned Arbovirus anti 3, Mtb betalactam -3, YopH inh 16, RecA intein inh 2.4 and Mtb growth -2%.
For O=C(NCCc1c[nH]c2ccccc12)c1cc(S(=O)(=O)N2CCCCC2)ccc1N1CCOCC1 the results were Arbovirus anti 0, Mtb betalactam -4, YopH inh -22, RecA intein inh -2.9 and Mtb growth 8%.
For COc1ccc(NC(=O)C2CCN(S(=O)(=O)c3ccc(N4CCCC4=O)cc3)CC2)c(OC)c1 the results were Mtb betalactam -2 and RecA intein inh 2.3.
CCC(C(=O)NCc1ccncc1)c1ccccc1 (stereo not given) was read as Arbovirus anti -6, Mtb betalactam -3, RecA intein inh 1.3 and Mtb growth 0%.
Screening CCC1CCCCN1C(=O)COc1cc(=O)n(C)c2ccccc12 (stereo not given) returned Arbovirus anti 2, Mtb betalactam 0, YopH inh -32, RecA intein inh -2.5 and Mtb growth 0%.
For Cc1nonc1C(=O)N/N=C/c1ccc([N+](=O)[O-])o1 the results were Arbovirus anti -3, Mtb betalactam 100, RecA intein inh -12 and Mtb growth 31%.
Cc1cccc(CCNC(=O)C2CCC(=O)N2Cc2ccc(F)cc2)c1 (stereo not given) was read as Arbovirus anti 1, Mtb betalactam -10, YopH inh -23, RecA intein inh 1.6 and Mtb growth -2%.
`COC(=O)CSc1nnc(SCc2ccc(Cl)cc2)s1` gave Arbovirus anti 3, Mtb betalactam 92, YopH inh -27, RecA intein inh 0.7 and Mtb growth 43%.
CC(C)NC(=O)NS(=O)(=O)c1cnccc1NC1CC2CCC1C2 (stereo not given) was read as Arbovirus anti 8, Mtb betalactam -6, YopH inh 0, RecA intein inh -2.7 and Mtb growth -8%.
Screening COc1cccc(CNC(=O)CSc2ccc(-c3ccccn3)nn2)c1 returned Arbovirus anti -32, Mtb betalactam -5, RecA intein inh -0.9 and Mtb growth 2%.
Screening Cc1cc(NC(=O)CSc2nnc(-c3ccco3)n2Cc2ccccc2)no1 returned Arbovirus anti -2, Mtb betalactam 12, YopH inh -30, RecA intein inh -1.1 and Mtb growth -6%.
Screening Cc1ccc(C(=O)Nc2c(N)nc(SCC(=O)NCC3CCCO3)[nH]c2=O)cc1 (stereo not given) returned Mtb betalactam 7 and RecA intein inh -1.2.
Screening CCn1c(C)c(CS(=O)(=O)c2ccccc2)[nH]c1=O returned Arbovirus anti 1, Mtb betalactam -2, RecA intein inh 0.0 and Mtb growth -3%.
COC(=O)c1cc(OC)c(OC)cc1NC(=S)N1CCCCC1 was read as Arbovirus anti 10, Mtb betalactam 8, YopH inh -25, RecA intein inh -2.8 and Mtb growth -7%.
For Cc1ccccc1Cn1c(O)c(N=NC(=S)Nc2ccccc2F)c2ccccc21 the results were Arbovirus anti -4, Mtb betalactam -3, RecA intein inh -0.2 and Mtb growth -10%.
CC(C)OCCCNC(=O)CNC(=O)c1ccc(Cl)c(Cl)c1 was read as Arbovirus anti 1, Mtb betalactam -2, RecA intein inh -1.2 and Mtb growth 3%.
For C[n+]1ccccc1/C=C/c1ccccc1Cl the results were Mtb betalactam -5 and RecA intein inh 0.4.
Screening CCC(C)NC(=O)Cn1cc(S(=O)(=O)N2CCN(c3ccccc3F)CC2)c2ccccc2c1=O (stereo not given) returned Arbovirus anti -10, Mtb betalactam 1, RecA intein inh 0.2 and Mtb growth 1%.
Cc1ccc(S(=O)(=O)C2(S(=O)(=O)c3ccc(C)cc3)CCCC2)cc1 was read as Arbovirus anti -21, Mtb betalactam -11, YopH inh -18 and RecA intein inh 2.7.
Screening CCOC(=O)CSc1nc2sc3c(c2c(=O)[nH]1)CCCC3 returned Arbovirus anti -1, Mtb betalactam -2, YopH inh -42, RecA intein inh -0.2 and Mtb growth -2%.
CCCc1cc(C(=O)Nc2nccs2)cs1 was read as Arbovirus anti 8, Mtb betalactam inconclusive, YopH inh -21, RecA intein inh 3.0 and Mtb growth 18µM*.
CCCCN(Cc1ccccc1)C(=O)C1CCC(=O)N(CCc2ccccn2)C1 (stereo not given) was read as Mtb betalactam -11 and RecA intein inh 1.3.
`CCOC(=O)c1cccc(NC(=O)Nc2cc(OC)ccc2OC)c1` gave Arbovirus anti 0, Mtb betalactam -2, YopH inh 1, RecA intein inh 0.3 and Mtb growth -3%.

3 entries picked at random from those above, as already listed:
Screening Cn1c(SCC(=O)NCc2ccco2)nc2ccccc2c1=O returned Arbovirus anti 14, Mtb betalactam -5, YopH inh 0, RecA intein inh -1.0 and Mtb growth -11%.
`CN(C)/C=C(/C(=O)c1ccc(F)cc1)S(=O)(=O)c1ccc(F)cc1` gave Arbovirus anti -1, Mtb betalactam -1, RecA intein inh 2.1 and Mtb growth -5%.
For Cc1ccccc1Cn1c(O)c(N=NC(=S)Nc2ccccc2F)c2ccccc21 the results were Arbovirus anti -4, Mtb betalactam -3, RecA intein inh -0.2 and Mtb growth -10%.

Carrying on:
`CC(C)(C)c1ccc(OCc2ccc(C(=O)NN)o2)cc1` gave Mtb betalactam -6, RecA intein inh 6.6 and Mtb growth -15%.
For COc1ccccc1N1CCN(C(=O)COc2cc(C)ccc2C)CC1 the results were Arbovirus anti 9, Mtb betalactam -3, YopH inh -24, RecA intein inh -2.6 and Mtb growth 6%.
Screening CCCCCn1c(N2CCN(c3cccc(Cl)c3)CC2)nc2c1c(=O)[nH]c(=O)n2C returned Arbovirus anti -3, Mtb betalactam -9, YopH inh -27, RecA intein inh -0.6 and Mtb growth 12%.
`CCN1CCN(c2ccc([N+](=O)[O-])cc2C#N)CC1` gave Arbovirus anti 6, Mtb betalactam -1, RecA intein inh 5.6 and Mtb growth 5%.
For Brc1ccc(N=C(c2ccccc2)c2ccncc2)cc1 the results were Arbovirus anti -14, Mtb betalactam 6, YopH inh -29, RecA intein inh 1.7 and Mtb growth -3%.
Cc1cc(NC(=O)COC(=O)CCC(=O)c2ccc(F)cc2)no1 was read as Arbovirus anti -1, Mtb betalactam -12, YopH inh -36, RecA intein inh 0.2 and Mtb growth 0%.
Screening NC(=O)c1ncn([C@@H]2O[C@H](CO)[C@@H](O)[C@H]2O)n1 returned Arbovirus anti 13, Mtb betalactam -5, YopH inh 2, RecA intein inh 0.5 and Mtb growth -9%.
`COc1ccc(CCNC(=O)C(C(=O)c2ccc(F)cc2)n2ccccc2=O)cc1OC` (stereo not given) gave Arbovirus anti 6, Mtb betalactam -3, YopH inh -24, RecA intein inh 0.9 and Mtb growth 4%.
Screening O=C(O)CCC(=O)NCc1cn(-c2ccccc2)nc1-c1cccc(Br)c1 returned Arbovirus anti 3, Mtb betalactam 10, YopH inh -8, RecA intein inh 0.1 and Mtb growth -6%.
`CCOC(=O)c1cc(-c2ccncc2)nc2c1c(C)nn2-c1ccccn1` gave Arbovirus anti -37, Mtb betalactam 1, YopH inh -9, RecA intein inh -2.9 and Mtb growth -13%.
For O=S(=O)(c1ccc(Br)s1)N1CCN(c2ccccc2)CC1 the results were Mtb betalactam -2, YopH inh -34, RecA intein inh -0.3 and Mtb growth 2%.
`COc1cccc(/C=N\NS(=O)(=O)c2ccccc2)c1OC` gave Mtb betalactam -1 and RecA intein inh -0.7.
For C/C(CC1CC2=C(CC1(C)C)C(C)(C)CCC2)=N\NC(N)=S (stereo not given) the results were Arbovirus anti -18, Mtb betalactam 1, YopH inh -4, RecA intein inh 1.7 and Mtb growth 18%.
For COc1ccc(-c2c(C)nn3c(N4CCOCC4)cc(C)nc23)cc1OC the results were Mtb betalactam 10 and RecA intein inh 1.0.
CS(=O)(=O)NCc1ccc(C(=O)NCCOc2ccccc2)cc1 was read as Arbovirus anti -2, Mtb betalactam -1, YopH inh -6, RecA intein inh -0.6 and Mtb growth 9%.
For CC1CC(C)(C)NC(=S)N1CC(=O)N1CCN(Cc2ccc3c(c2)OCO3)CC1 (stereo not given) the results were Arbovirus anti 0, Mtb betalactam -14 and Mtb growth 4%.
For CC(C)c1ccc(NC(=O)CSc2nc3ccsc3c(=O)n2CCC(=O)O)cc1 the results were Mtb betalactam -3 and RecA intein inh 2.0.
For COc1ccc(C(=O)O/N=C(\N)c2ccccc2Cl)cc1OC the results were Mtb betalactam 7 and RecA intein inh 2.2.
Screening O=C(NCc1ccccc1)c1cc[n+](Cc2ccccc2)cc1 returned Arbovirus anti 3, Mtb betalactam -10, RecA intein inh 1.2 and Mtb growth 0%.
C=C(C)Cn1c(-c2ccncc2)n[nH]c1=S was read as Arbovirus anti 8, Mtb betalactam 0, RecA intein inh 2.1 and Mtb growth 4%.
Screening CSc1ncccc1C(=O)NNC(=O)c1ccc(NS(=O)(=O)c2cccs2)cc1 returned Mtb betalactam 49 and RecA intein inh -1.1.
`O=C(Nc1ccc(N2CCCCC2)c(Cl)c1)c1ccc2c(c1)OCCO2` gave Arbovirus anti -25, Mtb betalactam 89, YopH inh -18, RecA intein inh 12 and Mtb growth 1%.
Screening O=C(O)CC(=O)Nc1ccccc1 returned Arbovirus anti 6, Mtb betalactam -5, YopH inh -9, RecA intein inh -1.7 and Mtb growth -7%.
Screening COC(=O)C1=NN(c2ccc(C)cc2)C2(S1)SC(C(C)=O)=C(C)N2c1ccccc1 (stereo not given) returned Arbovirus anti -8, Mtb betalactam 6, YopH inh -14, RecA intein inh -1.2 and Mtb growth -15%.

Brought forward from above: 3 compounds, followed by the next part.
`O=C(Nc1ccc(N2CCCCC2)c(Cl)c1)c1ccc2c(c1)OCCO2` gave Arbovirus anti -25, Mtb betalactam 89, YopH inh -18, RecA intein inh 12 and Mtb growth 1%.
Screening O=C(O)CC(=O)Nc1ccccc1 returned Arbovirus anti 6, Mtb betalactam -5, YopH inh -9, RecA intein inh -1.7 and Mtb growth -7%.
Screening COC(=O)C1=NN(c2ccc(C)cc2)C2(S1)SC(C(C)=O)=C(C)N2c1ccccc1 (stereo not given) returned Arbovirus anti -8, Mtb betalactam 6, YopH inh -14, RecA intein inh -1.2 and Mtb growth -15%.
For O=c1[nH]cnc2c1nnn2Cc1ccccc1 the results were Mtb betalactam 3 and RecA intein inh 1.3.
`Nc1c(C(=O)O)cnn1-c1ccc([N+](=O)[O-])cc1` gave Mtb betalactam -8, RecA intein inh -0.6 and Mtb growth -2%.
Screening O=C(NC12CC3CC(CC(C3)C1)C2)c1cccc([N+](=O)[O-])c1 returned Mtb betalactam 7 and RecA intein inh -2.8.
`CCOc1ccc(/C=C2\C(=O)c3ccccc3OC2c2ccccc2)cc1` (stereo not given) gave Arbovirus anti -25, Mtb betalactam inconclusive, YopH inh 19, RecA intein inh 9.0 and Mtb growth -1%.
`C=CCOc1c(Cl)cc(CNCCC)cc1Cl` gave Arbovirus anti 8, Mtb betalactam 3, YopH inh -3, RecA intein inh 3.0 and Mtb growth -3%.
